Rango-impB inh: qHTS Assay for Inhibitors of Rango (Ran-regulated importin-beta cargo) - Importin beta complex formation. Importin subunit beta-1 (Homo sapiens), Q14974. Rango CFP/YFP FRET sensor + importin beta, 45 min. Potency, µM (titrated, usually from 92.2 µM), for inactives: at the highest dose inhibition of complex formation. actives 0.031% (n = 340,000). AID 540263, 2011; active = rising FRET ratio curve, often small or poorly fitted; inconclusive = mostly compound fluorescence or quenching in the first reads; inactive = flat curves in all reads;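 also: potency is read from the fitted curve at half-maximal effect; 0% = DMSO wells and 100% = buffer wells lacking importin beta; nearly all actives have a fitted effect of over 15% in size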
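Inhibition scored from the CFP 486 nm/YFP 530 nm FRET ratio 45 min after adding 0.125 microM importin beta to 50 nM Rango biosensor preincubated 5 min with compound (room temperature, PBS with DTT, Tween-20, BSA). No-importin wells as positive control.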
Rango dissoc inh: qHTS Assay for Inhibitors of RanGTP induced Rango (Ran-regulated importin-beta cargo) - Importin beta complex dissociation. Snurportin-1 (Homo sapiens) + GTP-binding nuclear protein Ran (Homo sapiens) + Importin …. Biochemical FRET Rango-importin beta, RanGTP-induced dissociation. Potency, µM (highest dose often 46.1 µM), for inactives: at the highest dose activity change, negative = inhibition. actives 0.071% (n = 340,000); active means falling FRET ratio curve, often poorly fitted, with flat reads before Ran was added; inconclusive means other falling curves, or compound fluorescence or quenching; inactive means flat or rising ratio curve;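 also: potency is read from the fitted curve at half-maximal effect; % of control where 0% means no effect; nearly all actives have a fitted effect of over 45% in size; -100% = wells without RanGTP and RCC1; the record marks most hits as doubtful in a second field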
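Rango FRET biosensor (snurportin-1 IBB flanked by N-terminal EYFP and C-terminal CFP10) at 0.1 uM, with 0.25 uM importin beta in PBS, 1mM DTT, 0.02% Tween-20, 0.1% BSA. 0.6 uM Ran, 2mM GTP and 0.2 uM RCC1 were then added for 45 min at room temperature. Inhibition read as loss of FRET rise.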
GLA inh pH 4.5: qHTS Assay for Inhibitors of Human alpha-Galactosidase at pH 4.5; Alpha-galactosidase A (Homo sapiens), P06280; purified enzyme, 4-MU-alpha-Gal fluorescence, pH 4.5; activity change, negative = inhibition, % at 105 µM; 230,000 tested, under 10 active; inconclusive = small, poorly fitted or top-dose-only inhibition, or a rising curve; inactive = flat fitted curve, though single readings scatter; no compound was filed as active;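 also: 0% = full activity with enzyme and -100% = basal without enzyme; dose as in the result columns while the protocol names 77 µM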
Target sequence (P06280 whole entry, looked up): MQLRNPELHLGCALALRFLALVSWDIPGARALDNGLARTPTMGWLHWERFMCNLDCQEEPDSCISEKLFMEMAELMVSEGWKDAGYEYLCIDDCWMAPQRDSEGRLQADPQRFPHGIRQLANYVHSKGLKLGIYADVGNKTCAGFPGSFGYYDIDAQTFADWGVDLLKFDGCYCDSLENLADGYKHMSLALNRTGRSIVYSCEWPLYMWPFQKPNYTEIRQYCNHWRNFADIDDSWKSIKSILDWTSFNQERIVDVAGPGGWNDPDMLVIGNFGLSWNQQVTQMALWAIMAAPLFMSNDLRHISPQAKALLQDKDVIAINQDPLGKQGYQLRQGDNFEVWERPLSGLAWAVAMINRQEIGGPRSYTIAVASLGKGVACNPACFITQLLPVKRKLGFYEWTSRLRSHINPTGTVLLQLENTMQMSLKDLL
miR-21 FLuc: qHTS Assay for Modulators of miRNAs and/orActivators of miR-21. Potency, µM (doses to about 38.3 µM), for inactives: at the top dose reporter change, positive = more light. HeLa miR-21 FLuc reporter, luciferase, 48 h. 340,000 tested, under 10 active. AID 2288, 2010; active = well fitted rising curve with a large enough effect; inconclusive = small, poorly fitted or top-dose-only effect; inactive = no such curve, though single readings can be large or run the other way;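 also: % of control where 0% means no effect; miR-21 action dims this reporter so a rising signal means less miR-21 action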
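HeLa miR-21-FLuc reporter line, endogenous miR-21; 2000 cells/well in DMEM/10% FBS; compound titration up to ~40uM final, 48 h, 37 degree Celsius; luciferase detection reagent, 15 min lysis, CCD luminescence.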
Starred values were filed as active, the others as inactive; ? = inconclusive; . = not tested or not shown; & = joins results of further samples. The list is partial; count on the stated rates, not on these rows.

compound | miR-21 FLuc | Rango-impB inh | GLA inh pH 4.5 | Rango dissoc inh
COc1ccc2c3c1OC1C(=O)CC[C@@]4(O)[C@@H](C2)N(C)CC[C@]314 (stereo partly drawn) | . | -2.0% | . | 1%
Cc1ccsc1C(=O)C1CCCN(Cc2cccc(OCCO)c2)C1 (stereo not drawn) | 0% | -3.1% | -3 | -8%
CCOc1cc2c(cc1OCC)-n1cccc1C(c1cccc(OCC)c1O)NC2 (stereo not drawn) | 9% | 0.3% | . | 12%
CC(=O)N1N=C(c2cccnc2)OC1c1ccccc1Cl (stereo not drawn) | -1% | 4.8% | 0 | -3%
COc1ccc(NC(=O)c2cn(CCC#N)nc2-c2cccc(Br)c2)cc1 | 4% | 0.1% | . | -11%
COc1ccc(-[n+]2c(-c3ccccc3)cc(-c3ccc(C)cc3)cc2-c2ccccc2)cc1 | ? | -2.0% | . | -10%
O=C(Nc1ccc(Cl)cc1C(=O)c1ccccc1Cl)c1ccco1 | -2% | -2.5% | -3 | 17%
CCOc1ccc(NC(=O)c2c(C)nn(Cc3ccccc3)c2Cl)cc1 | -15% | -2.3% | 2 | 13%
COc1cccc(-n2c(-c3ccoc3)nc3ccccc3c2=O)c1 | -7% | 0.5% | 4 | -2%
Clc1ccc(Cn2ccnc2)cn1 | -1% | 2.9% | -10 | 4%
CC(=O)Nc1ccc(OC(=O)N(C)C)cc1 | -2% | 1.7% | -3 | -11%
Cc1cccc(OCC(=O)N2CCN(Cc3cccnc3)CC2)c1 | -6% | 2.4% | 1 | 18%

Further records follow.
compound | miR-21 FLuc | Rango-impB inh | GLA inh pH 4.5 | Rango dissoc inh
COC(=O)C1=C(c2ccc(OC)c(OC)c2)C[C@@H]2CC[C@H]1N2C(=O)N1CCc2cc(OC)c(OC)cc2C1 | . | -1.9% | . | 0%
O=C(N/N=C/c1c(O)n(C2CCCCC2)c(=S)[nH]c1=O)c1ccccc1O | -3% | 2.1% | . | ?
CCCN1CCC2(CC1)NC(CO)(CO)CO2 | 0% | -1.3% | -11 | -2%
COC(=O)C1=C(c2ccc(F)cc2OCc2ccccc2)C[C@@H]2CC[C@H]1N2C(=O)NCCN1CCOCC1 | . | -3.0% | . | -2%
c1ccc(CN2CCc3nc4ccccc4cc3C2)cc1 | -63% | -2.0% | . | -10%
Nc1ccc(Br)cc1C(=O)c1ccccc1 | -8% | ? | 5 | 2%
O[C@H]1C2CCC1C(N1CCCCC1)CC2 (stereo partly drawn) | -1% | 0.4% | -1 | 37%
O=C(COc1ccc2c3c(c(=O)oc2c1)CCC3)N1C[C@H]2C[C@@H](C1)c1cccc(=O)n1C2 | 4% | 0.4% | . | -7%
CCN1CCN(Cc2cc(Br)cc(OC)c2O)CC1 | -2% | -1.7% | 4 | 9%
Cn1c(=O)oc(=O)c2ccccc21 | . | 6.4% | . | 0%
CC(C)(Cl)[N+](=O)[O-] | . | 1.4% | . | 9%
COC(=O)C1=C(c2ccc(F)cc2F)C[C@@H]2CC[C@H]1N2C(=O)N1CCCC1 | . | -2.0% | . | 7%

(cont.)
compound | miR-21 FLuc | Rango-impB inh | GLA inh pH 4.5 | Rango dissoc inh
CCCCCCOc1ccc(CN2CCN(C)CC2)cc1 | -27% | 2.0% | 0 | -7%
CCOc1ccc(-n2c(-c3cccs3)nc3ccccc3c2=O)cc1 | 2% | 0.5% | -3 | -9%
CNC(=O)Oc1cccc(-c2cn3cc(OC(=O)NC)ccc3n2)c1 | -37% | ? | -9 | -25%
CCCCCCCCN=Cc1c(O)[nH]c(=O)[nH]c1=O | 2% | 2.4% | 6 | 1%
CC1CC(C)CN(C(=O)COC(=O)c2cn(C)c3ccccc23)C1 (stereo not drawn) | . | -1.3% | . | -12%
C=C(C)CSc1nnc([C@@H](N)Cc2ccccc2)o1 | -28% | -0.3% | 0 | -2%
O=C(C[N+]12CCC(CC1)C(C(O)(c1ccccc1)c1ccccc1)C2)c1ccc(Br)cc1 (stereo not drawn) | 8% | -1.8% | 0 | 9%
CC1OC(OC2C(O)CC(OC3C(O)CC(OC4CCC5(C)C(CCC6C5CCC5(C)C(C7=CC(=O)OC7)C(O)CC65O)C4)OC3C)OC2C)CC(O)C1O (stereo not drawn) | . | -1.0% | . | ?
COC(=O)C1=C(c2cccc(OCc3ccccc3)c2)C[C@@H]2CC[C@H]1N2C(=O)NCc1ccc2[nH]ccc2c1 | . | -5.3% | . | 0%
Cn1c(O)c(C2=NNC(c3ccc(Cl)cc3)C2)c(=O)n(C)c1=O (stereo not drawn) | -5% | 3.7% | -1 | 7%
ClC1=CCC2CN(CCN3CCCCC3)CC2C1 (stereo not drawn) | -7% | -0.1% | 18 | -7%
COC(=O)C1=C(c2cccc(OC)c2OC)C[C@@H]2CC[C@H]1N2C(=O)NCCCOC(C)C | . | ? | . | -10%

Reformatted: 2 of the compounds above
CC1OC(OC2C(O)CC(OC3C(O)CC(OC4CCC5(C)C(CCC6C5CCC5(C)C(C7=CC(=O)OC7)C(O)CC65O)C4)OC3C)OC2C)CC(O)C1O (stereo not drawn)
  miR-21 FLuc: .	Rango-impB inh: -1.0%	GLA inh pH 4.5: .	Rango dissoc inh: ?

CCOc1ccc(-n2c(-c3cccs3)nc3ccccc3c2=O)cc1
  miR-21 FLuc: 2%	Rango-impB inh: 0.5%	GLA inh pH 4.5: -3	Rango dissoc inh: -9%

Going on with the list:
compound | miR-21 FLuc | Rango-impB inh | GLA inh pH 4.5 | Rango dissoc inh
CCC[N+]12CCC(CC1)C(C(O)(c1ccccc1)c1ccccc1)C2 (stereo not drawn) | 0% | -0.7% | -3 | 10%
C[C@]12C=CC(=O)C=C1CC[C@@H]1C2CC[C@]2(C)OC(=O)CCC12 (stereo partly drawn) | -5% | 0.3% | -4 | 8%
Cn1c(O)c(/C=C2/C=CC=N2)c(=O)[nH]c1=O | 10% | -0.6% | -8 | -7%
C#CCOC(=O)C1=CCCN(C)C1 | . | -2.2% | -3&-1 | -13%
COc1ccccc1N1C(=O)NC(=O)/C(=C/c2ccc3c(c2)Cc2ccccc2-3)C1=O | -22% | 1.9% | 0 | -20%
O=[N+]([O-])c1cc(F)c(N2CCCCC2)cc1Br | 2% | 1.0% | -2 | -14%
COC(=O)C(O)(c1ccc(N(C)C)cc1)C(F)(F)F (stereo not drawn) | -1% | 0.0% | 6 | 11%
O=C(O)c1sc2cc(Cl)ccc2c1Cl | 0% | . | -3 | .
COCCNC(=O)c1c(N)n(Cc2ccco2)c2nc3ccccc3nc12 | 3% | ? | ? | ?
COc1ccc(C(CN(C)C)C2(O)CCCCC2)cc1 (stereo not drawn) | . | 0.2% | 2 | 11%
CCCCCCNC(=O)N[C@@H](Cc1ccc(O)cc1)C(=O)NCCC[C@H]1CN2C(=NC[C@H]2C)N1CC1CCC1 | -47% | 2.7% | 0 | 3%
CC(NC1=NCCS1)c1ccccc1 (stereo not drawn) | 0% | -0.8% | 3 | 40%

A second format for 2 compounds above:
COC(=O)C(O)(c1ccc(N(C)C)cc1)C(F)(F)F (stereo not drawn)
  miR-21 FLuc = -1%
  Rango-impB inh = 0.0%
  GLA inh pH 4.5 = 6
  Rango dissoc inh = 11%
CCCCCCNC(=O)N[C@@H](Cc1ccc(O)cc1)C(=O)NCCC[C@H]1CN2C(=NC[C@H]2C)N1CC1CCC1
  miR-21 FLuc = -47%
  Rango-impB inh = 2.7%
  GLA inh pH 4.5 = 0
  Rango dissoc inh = 3%

Remaining list, next part:
compound | miR-21 FLuc | Rango-impB inh | GLA inh pH 4.5 | Rango dissoc inh
COc1ccc(CCNC2CCCCCC2)cc1 | 9% | -0.4% | . | 5%
CN1CCN(Cc2ccccc2C(F)(F)F)CC1 | -1% | -1.6% | 3 | 1%
N#CC(C#N)=C(C#N)c1ccc(Nc2ccccc2)cc1 | -2% | -5.8% | . | -13%
CCCCn1c(O)c(C=NC2CC3CCC2(C)C3(C)C)c(=O)[nH]c1=O (stereo not drawn) | -20% | -2.1% | -3 | 14%
Oc1cc2c(cc1CN1CCN(c3ccc(F)cc3)CC1)OCO2 | -3% | 0.7% | . | 10%
COc1cc2c(c(OC)c1OC)-c1ccc(O)c(=O)cc1C(NC(C)=O)CC2 (stereo not drawn) | 24% | 0.1% | -7 | 6%
COc1ccc(C2SCC(=O)Nc3c2c(C)nn3C2CCOC(C)(C)C2)cc1OC (stereo not drawn) | -1% | 0.7% | 0 | -5%
Cn1c(O)c(/C=N/c2ncccn2)c(=O)n(C)c1=O | 0% | -0.2% | -2 | 1%
C[C@]12CC[C@@H](O)CC1=CCC1C2CC[C@]2(C)C(=O)[C@H](F)CC12 (stereo partly drawn) | . | 0.3% | . | 13%
CC1CN(c2ccccn2)C(C)CN1C(=O)C(O)(c1ccccc1)c1ccccc1 (stereo not drawn) | . | 0.6% | . | -9%
CCCn1c(C)cc(C=O)c1C | -1% | 0.5% | -13 | -10%
COC(=O)C1=C(c2cccc(OCc3ccccc3)c2)C[C@@H]2CC[C@H]1N2C(=O)NCc1ccc(N(C)C)cc1 | . | -0.2% | . | 6%

Additional compounds follow:
compound | miR-21 FLuc | Rango-impB inh | GLA inh pH 4.5 | Rango dissoc inh
C=CCC1(CN2CCCC2=O)C(=O)NC(=O)NC1=O | -6% | 0.0% | 3 | ?
COc1ccccc1CCNC(=O)CCC(=O)N1CC2C[C@@H](C1)Cn1c2cccc1=O | -8% | 3.0% | . | 7%
NC(=O)CN1C2CCC1CC(NC(=O)C1CC1)C2 (stereo not drawn) | -1% | -0.4% | -10 | 3%
Cn1c(O)c(/C=C2\C=c3ccccc3=NC2=O)c(=O)n(C)c1=O | 0% | ? | . | -8%
O=c1[nH]c(=S)n(C2CC2)c(O)c1C=NCc1cccnc1 | 0% | 3.7% | -1 | 6%
C#CCN1C(=O)S/C(=C\c2ccc(N3CCOCC3)cc2C)C1=O | -38% | ? | -2 | -22%
Cc1cc(C)nc(NC2=NCCS2)n1 | -4% | -2.2% | -2 | 12%
CCN1CC2C3CCC(C)(O3)C2C1 (stereo not drawn) | -1% | -0.6% | 0 | 10%
CCCCn1c(O)c(C(C)=NC(C)c2ccccc2)c(=O)[nH]c1=O (stereo not drawn) | 12% | -1.1% | 2 | 7%
Cc1ccc2[nH]c3c(c2c1)CN(C(=O)CN1C[C@H]2C[C@@H](C1)c1cccc(=O)n1C2)CC3 | -4% | ? | . | ?
COC(=O)C(O)(c1ccc(NC(=S)NC(=O)c2ccc(Cl)cc2Cl)cc1)C(F)(F)F (stereo not drawn) | -3% | -2.6% | -6 | 11%

Copied from the list:
Rango dissoc inh, CCN1CC2C3CCC(C)(O3)C2C1 (stereo not drawn) = 10%
Rango dissoc inh, NC(=O)CN1C2CCC1CC(NC(=O)C1CC1)C2 (stereo not drawn) = 3%
GLA inh pH 4.5, C#CCN1C(=O)S/C(=C\c2ccc(N3CCOCC3)cc2C)C1=O = -2
GLA inh pH 4.5, COC(=O)C(O)(c1ccc(NC(=S)NC(=O)c2ccc(Cl)cc2Cl)cc1)C(F)(F)F (stereo not drawn) = -6

Results in GLA inh pH 4.5, miR-21 FLuc and Rango dissoc inh (two entries from above):
SMILES	GLA inh pH 4.5	miR-21 FLuc	Rango dissoc inh
CCC[N+]12CCC(CC1)C(C(O)(c1ccccc1)c1ccccc1)C2 (stereo not drawn)	-3	0%	10%
COc1ccc(C2SCC(=O)Nc3c2c(C)nn3C2CCOC(C)(C)C2)cc1OC (stereo not drawn)	0	-1%	-5%
